Source: PubChem BioAssay (National Center for Advancing Translational Sciences (NCATS))
HPGD block – HPGD (human) dehydrogenase inhibition; purified HPGD, NADH fluorescence kinetic, PGE2 substrate; Potency, µM, without a hit: at the top dose activity change, negative = inhibition, hits mostly inhibitors; AID 894; actives 4.3% (n = 150,000); P15428; active = well fitted inhibition curve with a large enough effect (not every such curve was filed as active); inconclusive = small, poorly fitted or top-dose-only effect, or another doubt; inactive = no such curve, though single readings can be large or run the other way;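 note: top concentration of the series not given in the record; plate controls included wells without enzyme; inactives centre near -10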
Target sequence (P15428 whole entry, looked up): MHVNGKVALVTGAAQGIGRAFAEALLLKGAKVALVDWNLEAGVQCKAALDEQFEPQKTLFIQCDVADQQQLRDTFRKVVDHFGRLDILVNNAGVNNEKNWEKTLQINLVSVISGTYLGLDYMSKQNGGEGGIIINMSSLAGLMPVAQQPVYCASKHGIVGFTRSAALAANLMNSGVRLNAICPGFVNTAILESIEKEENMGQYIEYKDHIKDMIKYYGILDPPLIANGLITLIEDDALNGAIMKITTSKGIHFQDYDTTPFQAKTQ
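NADH formation kinetics: reaction with 30 uM PGE2 and 1 mM NAD+ (final), 20 nM enzyme, Tris-HCl pH 8 with Tween 20, after 15 min compound preincubation at room temperature. Fluorescence change, last versus first of five reads.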
* = called active by the depositor; ? = inconclusive; & = joins results of further samples. % is set by controls: 0 for no effect and ±100 for the full control effect; potency is the fitted concentration of half-maximal effect. These rows are one share of the data (hit frequency here may not be typical).

No.	HPGD block	smiles
1	-2%	Cc1ccc(S(=O)(=O)N(c2ccccc2)C2CCS(=O)(=O)C2)cc1 (stereo not given)
2	-12%	CCC(Sc1nc2c(c(=O)n1CC)SC(C)C2)C(=O)OC (stereo not given)
3	-8%	COc1cc2cc(C(c3nnnn3C3CCCC3)N3CCc4ccccc43)c(=O)[nH]c2cc1OC (stereo not given)
4	-1%	CCC(C)N(CC(=O)NCc1ccc(OC)cc1)C(=O)c1csnn1 (stereo not given)
5	-10%	O=S(=O)(NCc1ccco1)c1cccc(S(=O)(=O)N2CCOCC2)c1
6	-17%	COc1ccc(CC(=O)Nc2nc(-c3cccc([N+](=O)[O-])c3)cs2)cc1
7	-4%	COc1cccc(OCC(=O)N(Cc2nc(-c3ccc(Cl)cc3)no2)C(C)C)c1
8	0%	COc1ccc(S(=O)(=O)N(CC(=O)N2CCCC2)Cc2ccccc2)cc1
9	-21%	O=C(N/N=C/c1ccccn1)c1cc(-c2ccc(Cl)cc2)nc2ccccc12
10	-20%	Cc1cccc(CN2C(=O)N/C(=C/c3cc(C)n(-c4ccccn4)c3C)C2=O)c1
11	-8%	CC(C)(C)NC(=O)NC(=O)COC(=O)c1ccco1
12	-21%	N#Cc1ccc2ccn(CC(=O)NC3CCCCCC3)c2c1
13	-9%	Cc1ccc(NC(=S)N2CCC(c3nc4ccccc4s3)CC2)cc1C
14	-21%	CCOc1ccc(C2CC(c3cccc(C)c3)n3ncnc3N2)cc1 (stereo not given)
15	-25%	O=C(NC[C@@H](O)CO)c1c(I)c(C(=O)NC[C@@H](O)CO)c(I)c(N(CCO)C(=O)CO)c1I
16	-16%	Cc1ccc(OCCn2c(Br)nc3c2c(=O)n(C)c(=O)n3C)cc1
17	?	COc1cccc(-n2nnc3c(=O)n(CC(=O)OCc4ccccc4)cnc32)c1
18	-5%	CS(=O)(=O)N1CCC[C@@]2(CCN(Cc3nccs3)C2)C1
19	-12%	CC1=Nc2cccc3cccc(c23)N1
20	-7%	COC(=O)c1ccc(=O)n(Cc2ccco2)c1
21	-19%	COc1cccc(NC(=S)N(CCc2c(C)[nH]c3ccccc23)Cc2cccs2)c1
22	-21%	Cc1cc2n(n1)C(c1ccccc1Cl)Nc1ccccc1-2 (stereo not given)
23	-4%	Cc1cccc(OCc2nnc(NC(=O)Cc3cccs3)s2)c1
24	-11%	Cc1ccn2c(C(=O)c3ccc(Cl)cc3)cnc2c1
25	0%	Cc1cc(NC(=O)c2cc(-c3ccco3)on2)no1
26	-24%	N#Cc1c(-c2ccccc2)ccn(Cc2ccccc2Cl)c1=O
27	-4%	CCOCCCN(C(=O)CNC(=O)c1ccco1)C(C(=O)NC1CCCC1)c1ccccc1C (stereo not given)
28	-8%	CS(=O)(=O)N(CC(=O)NC1CC2CCC1C2)c1cccc(C(F)(F)F)c1 (stereo not given)
29	14µM*	Nc1scc2c(C(=O)N/N=C/c3ccc(Cl)cc3)nn(-c3ccccc3)c(=O)c12
30	-7%	COc1ccc(/C=C2/SC(=O)N(CCC(=O)Nc3ccc(S(=O)(=O)Nc4nccs4)cc3)C2=O)cc1
31	2%	CN(C)S(=O)(=O)c1ccc(Oc2ccc(S(=O)(=O)N(C)C)cc2)cc1
32	-20%	N=c1oc2ccccc2cc1C(=O)N/N=C/c1ccccc1
33	-6%	CCC(C)SCc1nc2ccccc2[nH]1 (stereo not given)
34	-17%	Cc1cnc(CNc2ncnc3ccc(-c4ccccc4C#N)cc23)cn1
35	-9%	CCOC(=O)Nc1cccc(OCC(=O)Nc2ccccc2OC)c1
36	25µM*	O=C(CCc1ccccc1)NCCC1=CCCCC1

An excerpt of these results, tab-delimited:
no.	smiles	HPGD block
31	CN(C)S(=O)(=O)c1ccc(Oc2ccc(S(=O)(=O)N(C)C)cc2)cc1	2%
32	N=c1oc2ccccc2cc1C(=O)N/N=C/c1ccccc1	-20%
33	CCC(C)SCc1nc2ccccc2[nH]1 (stereo not given)	-6%
34	Cc1cnc(CNc2ncnc3ccc(-c4ccccc4C#N)cc23)cn1	-17%
35	CCOC(=O)Nc1cccc(OCC(=O)Nc2ccccc2OC)c1	-9%
36	O=C(CCc1ccccc1)NCCC1=CCCCC1	25µM*

New compounds follow.
No.	HPGD block	smiles
37	-18%	CCOc1ccc(NCc2cc3c(C(C)(C)C)nn(-c4ccccc4)c3[nH]c2=O)cc1
38	-7%&-3%	COC(=O)N1C(c2ccccc2)=Cc2ccccc2C1C1(C(=O)OC)CCCC1=O (stereo not given)
39	2%	Cc1ccccc1C(=O)NNC(=O)CSc1nnc(-c2ccncc2)n1-c1ccccc1
40	-21%	O=C(Nc1ccccc1Cl)c1cc(S(=O)(=O)N2CCCCC2)ccc1N1CCOCC1
41	-7%	COc1ccc(N(CC(=O)N2CCN(c3ccccc3)CC2)S(=O)(=O)c2c(C)noc2C)cc1
42	7%	Cc1ccc(CC2CC(=O)N(c3ccc(Cl)cn3)C2=O)cc1 (stereo not given)
43	-4%	Cc1ccccc1Cn1c(C(C)O)nc2ccccc21 (stereo not given)
44	-3%	CCOc1ccc(N=Nc2cc(C(C)C)ccc2O)cc1
45	?	CN(C)CCCNC(=O)c1ccc2[nH]c3ccccc3c2c1
46	4%	CC(C)CCNC(=O)Cn1c(=O)oc2cc(S(=O)(=O)N3CC(C)CC(C)C3)ccc21 (stereo not given)
47	-19%	COc1ccccc1NC(=O)CN1CCN(CC(=O)Nc2ccc(F)cc2)CC1
48	-3%	COc1cccc(C(=O)N2CCN(Cc3ccc4c(c3)OCO4)CC2)c1OC
49	-17%	CCCCN(C)S(=O)(=O)c1ccc(C(=O)Nc2nnc(-c3cccs3)o2)cc1
50	-5%	Nc1ccc(CCS(N)(=O)=O)cc1
51	28µM*	CC(C)(C)C1CCc2c(sc3nc(SCC(N)=O)nc(N)c23)C1 (stereo not given)
52	-4%	O=C(NCCCN1CCCC1=O)c1ccc2c(=O)n(Cc3ccco3)c(=S)[nH]c2c1
53	-8%	CCOc1ccc(NC(=O)CCC(=O)O)cc1
54	-8%	CC(OC(=O)CN1C(=O)C2CCCCC2C1=O)C(=O)Nc1ncc(Cl)cc1Cl (stereo not given)
55	-6%&-7%&0%&-11%&-6%	CCCCNC(=O)NS(=O)(=O)c1ccc(C)cc1
56	-4%	O=C(N1CCOCC1)N1c2ccccc2Sc2ccccc21
57	-8%	CC(C)(C)c1nnc(NC(=O)Cc2ccc(Br)cc2)s1
58	4%	CC1CCC2(CC1)NC(=O)c1ccccc1O2 (stereo not given)
59	?	O=C(Nc1nccs1)c1ccc(-c2ccccc2Cl)o1
60	-19%	CCCc1[nH]nc2c1C(CCC)C(C#N)=C(N)O2 (stereo not given)
61	-19%	CCC(=O)Nc1ccc(C(=O)NNC(=O)C(c2ccccc2)c2ccccc2)cc1
62	1%	O=C(Cc1ccccc1)N1CCCC(c2nc(-c3cccs3)no2)C1 (stereo not given)
63	-8%	S=C(Nc1ccccc1)Nc1cc(Cl)ccc1Oc1ccccc1
64	-14%	CCOC(=O)N1CCC(N2Cc3cccc(C(=O)Nc4ccc(CC)cc4)c3C2=O)CC1
65	?	O=C1C2C3C=CC(C3)C2C(=O)N1c1ccc(Cc2ccncc2)cc1 (stereo not given)
66	-12%	CC1CCCC(C)N1C(=O)C1CCCCC1 (stereo not given)
67	-3%	C=C(Cl)COC(=O)[C@H]1C2C=CC(C2)C1C(=O)O (stereo not given in full)
68	-13%	Cc1nn(C)c(C)c1N=Cc1c(O)ccc2ccccc12
69	?	O=C(CSc1nc2ccccc2[nH]1)N=Nc1c(O)[nH]c2ccccc12
70	0%	C/C(=N\NC(=O)CC1N=C(Cc2ccccc2)NNC1=O)c1ccc(Cl)cc1Cl (stereo not given)
71	?	Cc1nc2nc(-c3ccco3)[nH]n2c(=O)c1C
72	16µM*	COc1ccc(NC(=S)NCCSc2ccc(Cl)cc2)c(OC)c1
73	-10%	CCn1c2ccccc2c2nnc(SCC(=O)NC(CC(C)C)C(=O)OC)nc21 (stereo not given)
74	-6%	Cc1cc(C)nc(NC(=O)c2c(-c3ccccc3Cl)noc2C)c1
75	-4%	COc1cc2c(cc1O)[C@@H](c1cc(O)c(O)c(OC)c1)[C@@](O)(C(=O)O)[C@@H](CO)[C@@H]2O
76	-13%	CC/C(=N/Nc1ccccc1Cl)c1cnnc(-c2ccccc2)n1
77	-13%	CCc1nn(CC(=O)NCCCN(CC)Cc2ccccc2)c(=O)c2cc3sccc3n12
78	?	O=C1c2ccccc2NC(c2cccc(F)c2)N1Cc1ccco1 (stereo not given)
79	-7%	CCOC(=O)C(NC(=O)Nc1ccc(F)cc1)(OCC)C(F)(F)F (stereo not given)
80	-3%	O=C(COc1ncnc2sccc12)N1CCc2ccccc2C1
81	-7%	CCc1nnc(NC(=O)CSc2nc3cc4c(cc3cc2CC)OCCO4)s1
82	-2%	COC(=O)Nc1ncc(CN2CCc3ccccc3C2)s1
83	-9%	C/C(=N\NC(=O)c1ccc(NS(=O)(=O)c2cccs2)cc1)c1ccc(Cl)cc1
84	-15%	O=C(Nc1cccnc1Cl)C1c2ccccc2Oc2ccccc21
85	-10%	Cc1ccc(N=C2CCCCCN2C)c(C#N)c1
86	-16%	COc1ccc(OCC(=O)NC(=S)N2CCCc3ccccc32)cc1
87	-3%	O=C(NCC(=O)N(Cc1cccs1)C(C(=O)NC1CCCCC1)c1cccnc1)c1ccco1 (stereo not given)
88	-17%	CCOC(=O)c1c(N)nn(C(=O)CC)c1-c1ccccc1
89	4%	CCCOC(=O)C1C2C=CC3(CN(c4cccc(Cl)c4)C(=O)C13)O2 (stereo not given)
90	-12%	Cc1ccc2c(c1)[C@@H]1CN(C)CC[C@@H]1N2S(=O)(=O)c1ccc(F)cc1
91	-2%	COC(=O)c1cc(Br)c(=O)n(-c2cccc(F)c2)c1
92	-7%	COc1ccc(NC(=O)CCc2c(C)nc3nc(C)nn3c2C)cc1
93	-12%	Cc1cc(C)nc(N/N=C/C2=C(N3CCOCC3)C(=C\c3ccc(Cl)cc3)/CC2)n1
94	-9%	Cc1nc(CNS(=O)(=O)c2ccccc2F)cs1
95	-15%	Cc1cc(C=C2C(=O)c3ccccc3C2=O)c(C)n1C
96	-9%	Cc1ccc(N(CC(O)Cn2nc(C)cc2C)S(=O)(=O)c2ccc3ccccc3c2)cc1 (stereo not given)

Further structures
No.	HPGD block	smiles
97	-15%	CCOC(=O)c1sc(Nc2cccc(C)c2C)nc1C
98	-5%	CCOC(=O)N1CCN(c2c(NCCCN3CCCC(C)C3)c(=O)c2=O)CC1 (stereo not given)
99	-2%	O=c1ccn(-c2cccc(C(F)(F)F)c2)nc1-c1ccn(-c2cccc(Cl)c2)n1
100	-9%	O=C1CCc2cc(S(=O)(=O)NC(C(=O)NCc3cccnc3)c3ccccc3)ccc2N1 (stereo not given)
101	-22%	O=C1N/C(=N/N=C/c2ccccc2)SC1(c1ccccc1)c1ccccc1
102	-9%	O=S(=O)(c1ccc(Br)s1)N1CCCCC1
103	?	Cc1cc(-c2ccccc2)nc(N(C)NC(=O)c2c(F)cccc2F)c1S(C)(=O)=O
104	-8%	CC(C)CN(C(=O)CN1CCN(c2ccccc2F)CC1)c1c(N)n(CC(C)C)c(=O)[nH]c1=O
105	-11%	CCn1cc(C(=O)N2CCCCC2)c(=O)c2cc(S(=O)(=O)N3CCC(C)CC3)ccc21
106	-5%	CC(C)(C)NS(=O)(=O)c1ccc(Oc2ncc(C(F)(F)F)cc2Cl)cc1
107	?	Cc1ccc(-c2nc3ccccc3[nH]2)cc1NC(=O)c1sc2cc(Cl)ccc2c1Cl
108	?	CCC(Sc1nc(-c2ccccc2)c(C#N)c(=O)[nH]1)C(=O)Nc1nnc(C)s1 (stereo not given)
109	0%	CCOC(=O)c1noc(C)c1C(=O)Nc1cccc(F)c1
110	-12%	O=C(NCc1ccco1)c1cccc(S(=O)(=O)N2CCOCC2)c1
111	-2%	COC(=O)c1ccc(Cn2nc(C)c(Br)c2C)cc1
112	13µM*	Nc1nc(=S)[nH]c2c1C1(CCCC1)Cc1ccccc1-2
113	-5%	Cc1ccc(S(=O)(=O)n2ccnc2)cc1C
114	-3%	Cc1cc(C)n(-c2nc3ccccc3n3cnnc23)n1
115	-1%	Cc1ccc(-n2c(=S)[nH]c3nc4c(cc3c2=O)COC(C)(C)C4)cc1
116	-23%	Cc1c(N2C(=O)c3cccc4cccc(c34)C2=O)c(=O)n(-c2ccccc2)n1C
117	-23%	COc1ccc(C2CC(C(F)(F)F)n3ncc(C(=O)O)c3N2)cc1OC (stereo not given)
118	-13%	C/C(CC(=O)Nc1ccc(Cl)cc1Cl)=N\NC(N)=S
119	-12%	COc1ccc(Cn2nnnc2C(c2ccccn2)N2CCN(c3cc(Cl)ccc3C)CC2)cc1 (stereo not given)
120	1%	COc1cccc(/C(C)=N/NC(=O)c2cc(-c3cccnc3)nc3ccccc23)c1
121	-10%	C=CCCC1(C)C(=O)N(c2ccccc2)c2ccccc21 (stereo not given)
122	?	N#Cc1nc(-c2ccc(OCc3ccccc3)cc2)oc1NCCN1CCOCC1
123	-5%	CCOc1ccc(C(=O)CN2CCN(S(=O)(=O)c3ccc(Br)cc3)CC2)cc1

2 entries from above, as tab-separated lines:
entry	Compound	HPGD block
110	O=C(NCc1ccco1)c1cccc(S(=O)(=O)N2CCOCC2)c1	-12%
111	COC(=O)c1ccc(Cn2nc(C)c(Br)c2C)cc1	-2%

Seven entries already listed, arranged by their value in HPGD block, smallest number first:
No.	HPGD block	smiles
117	-23%	COc1ccc(C2CC(C(F)(F)F)n3ncc(C(=O)O)c3N2)cc1OC (stereo not given)
118	-13%	C/C(CC(=O)Nc1ccc(Cl)cc1Cl)=N\NC(N)=S
110	-12%	O=C(NCc1ccco1)c1cccc(S(=O)(=O)N2CCOCC2)c1
121	-10%	C=CCCC1(C)C(=O)N(c2ccccc2)c2ccccc21 (stereo not given)
111	-2%	COC(=O)c1ccc(Cn2nc(C)c(Br)c2C)cc1
115	-1%	Cc1ccc(-n2c(=S)[nH]c3nc4c(cc3c2=O)COC(C)(C)C4)cc1
120	1%	COc1cccc(/C(C)=N/NC(=O)c2cc(-c3cccnc3)nc3ccccc23)c1
